Screening data (PubChem BioAssay)
Lassa entry inh = blocks Lassa virus binding to or entry into cells | hit rate 1.2% among 300,000 | Potency, µM (top dose mostly 37.9 µM), inactives show at the top dose activity change, negative = inhibition, actives largely listed as inhibitors | AID 540256 | Lassa virus pseudotype entry inhibition, cell reporter; control for the full effect not named in the record; active means well fitted inhibition curve with a large enough effect; inconclusive means small, poorly fitted or top-dose-only effect, or effect the other way; inactive means flat fitted curve, though single readings scatter; tested in HEK293 cells; further: on the % scale 0 is the no-effect control and ±100 the full control effect; nearly all actives have a fitted effect of over 50% in size; luciferase read-out
2A StopGo = FMDV 2A StopGo reporter, luciferase signal; human cells with a luciferase reporter of 2A StopGo recoding; control for the full effect not named in the record; Potency, µM (top dose mostly 57.9 µM), without a hit: at the highest dose signal change, negative = less light; hit rate 1.2% among 410,000; AID 1159524; active = well fitted falling curve with a large enough effect; inconclusive = small, poorly fitted or top-dose-only effect; inactive = no such curve, though single readings can be large or run the other way; tested in HEK293T cells; further: on the % scale 0 is the no-effect control and ±100 the full control effect; nearly all actives have a fitted effect of over 45% in size; luciferase light after 4 h
Cruzain inh noDet = cruzain (T. cruzi) inhibition without detergent; P25779; hit rate 2.3% among 200,000; Potency, µM, for the others: max response, negative = inhibition, most hits filed as inhibitors; purified cruzain, Z-FR-AMC fluorescence, no detergent; active means well fitted curve in the direction sought with a large enough effect; inconclusive means small, poorly fitted or top-dose-only effect, or another doubt; inactive means no such curve, though single readings can be large; an effect the other way counts as inactive or inconclusive;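 further: plate controls were enzyme without inhibitor for no effect and buffer without enzyme for full effect; nearly all actives have a fitted effect of over 40% in size; top concentration of the series not given in the record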
Target sequence (P25779 123-467 limits assumed): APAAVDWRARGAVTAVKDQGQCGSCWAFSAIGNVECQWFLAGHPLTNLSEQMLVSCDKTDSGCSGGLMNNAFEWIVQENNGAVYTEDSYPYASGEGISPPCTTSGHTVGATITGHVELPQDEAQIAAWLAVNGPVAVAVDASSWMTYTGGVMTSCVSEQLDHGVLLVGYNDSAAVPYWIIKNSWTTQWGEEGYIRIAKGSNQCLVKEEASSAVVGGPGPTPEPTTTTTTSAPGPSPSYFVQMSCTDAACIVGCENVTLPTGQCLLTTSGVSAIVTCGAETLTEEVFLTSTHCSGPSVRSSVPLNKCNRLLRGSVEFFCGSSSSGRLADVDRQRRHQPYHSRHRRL
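Detergent-free condition (0.00005% Triton X-100) in acetate buffer pH 5.5 with DTT. 1.5 nM enzyme and compound were pre-mixed 15 min, then 2 uM Z-FR-AMC substrate added; reaction progress from fluorescence change between first and third reads (60 s).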
SARS PLpro yeast = blocks SARS-CoV papain-like protease in a yeast assay; S. cerevisiae expressing SARS-CoV PLpro, growth rescue; control for the full effect not named in the record; hit rate 0.19% among 330,000; Potency, µM (titrated, usually from 32.9 µM), for the others: top-dose activity, positive = growth rescue; further: 0% is about no effect; nearly all actives have a fitted effect of over 55% in size; growth read by luminescence after 48 h
MARV entry inh = blocks Marburg virus binding to or entry into cells; Marburg virus pseudotyped entry inhibition, cell reporter; control for the full effect not named in the record; about a third of the inactives were read at about 46 µM; hit rate 1.8% among 300,000; Potency, µM (titrated, usually from 37.8 µM), inactives show at the highest dose activity change, negative = inhibition, actives largely listed as inhibitors; active = well fitted inhibition curve with a large enough effect; inconclusive = small, poorly fitted or top-dose-only effect, or effect the other way; inactive = flat fitted curve, though single readings scatter; tested in HEK293 cells; about a fifth of its hits are not listed in these tables; further: on the % scale 0 is the no-effect control and ±100 the full control effect; luciferase read-out
Cruzain Triton = inhibitors of Trypanosoma cruzi cruzain with detergent; purified cruzain, Z-FR-AMC fluorescence, 0.01% Triton; Potency, µM, without a hit: max response, negative = inhibition, actives largely listed as inhibitors; hit rate 0.43% among 200,000; AID 1478; active means well fitted curve in the direction sought with a large enough effect; inconclusive means small, poorly fitted or top-dose-only effect, or another doubt; inactive means no such curve, though single readings can be large; an effect the other way counts as inactive or inconclusive;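 further: plate controls were neutral wells for no effect and buffer without enzyme for full effect; nearly all actives have a fitted effect of over 40% in size; top concentration of the series not given in the record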
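Read-out: AMC fluorescence (360 nm excitation, 450 nm emission), four reads over 2 min, first-to-third difference used. Conditions: cruzain 1.5 nM, Z-FR-AMC 2 uM, pH 5.5 acetate, 5 mM DTT, 0.01% Triton X-100.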
NS1 inh = blocks influenza NS1 protein function | S. cerevisiae slowed by influenza A NS1, growth recovery by OD600 | Potency, µM (highest dose often 46.1 µM), without a hit: top-dose activity, positive = more growth | hit rate 0.4% among 270,000 | AID 2326; further: actives are rising curves; nearly all actives have a fitted effect of over 50% in size
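Recovery from NS1-induced slow growth read by OD600 in budding yeast switched to galactose assay medium (pH 6.0, -URA) at 1:100 dilution. Compound 23 nl per well; the matching strain lacking NS1 serves as control.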
RE007 growth inh = less growth of the S. pombe RE007 Vpr strain; S. pombe RE007 Vpr strain, BacTiter-Glo ATP luminescence, 24 h; control for the full effect not named in the record; hit rate 0.21% among 360,000; Potency, µM (series often up to 92.2 µM), for the others: at the highest dose activity change, negative = less growth; active = well fitted falling curve with a large enough effect; inconclusive = small, poorly fitted or top-dose-only effect; inactive = no such curve, though single readings can be large or run the other way;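 further: on the % scale 0 is the no-effect control and ±100 the full control effect; nearly all actives have a fitted effect of over 50% in size; the assay follows cell death caused by Vpr and the record does not say whether a fall means rescue or toxicity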
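Fission yeast strain RE007, carrying one chromosomally integrated HIV-1 vpr copy, was seeded at OD 0.01 in PMG+AL medium with 23 nL pinned compound. After 24 h at 30 °C and 99% humidity, viability was read by BacTiter-Glo luminescence.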
Active calls of the source: *; u = inconclusive; x = no result given; & = joins results of further samples; [ ] = remark or other dose. Unless noted, the call rests on the fitted dose curve; in most records, active means well fitted rising curve with a large enough effect; inconclusive means small, poorly fitted or top-dose-only effect; inactive means no such curve, though single readings can be large or run the other way. Potency means the concentration at half of the fitted maximal effect.

SMILES	Lassa entry inh	2A StopGo	Cruzain inh noDet	SARS PLpro yeast	MARV entry inh	Cruzain Triton	NS1 inh	RE007 growth inh
Cc1cc(=O)[nH]c(N/N=C/c2ccc(Cl)c([N+](=O)[O-])c2)n1	13.5%	22.1%	x	-0.5%	-1.4%	x	7.4%	16.1%
Cc1ccc(NC(=O)CSc2ccc(-c3sc(-c4ccccc4)nc3C)nn2)cc1F	0.1%[46.1 µM]	18.4%	22.8%	x	x	-3.4%	x	x
CCn1cc(-c2cc(C(=O)O)on2)c(C)n1	13.6%[46.1 µM]	-1.5%	x	2.2%	u	x	x	-6.6%
CC(=O)c1cc(C(=O)N2CCCC(CCC(=O)N(C)CCc3ccccn3)C2)cs1 (centres undefined)	4.8%[46.1 µM]	-24.2%	x	0.5%	3.7%[46.1 µM]	x	0.1%	-5.1%
CCCOc1ccc(C(=O)OCC(=O)NCCc2ccc(OCC)c(OCC)c2)cc1OC	17.7%[46.1 µM]	9.1%	x	0.0%	-13.1%[46.1 µM]	x	10.8%	-2.8%
CCOC(=O)COc1ccc(Cl)cc1C1NC(=O)NC(C)=C1C(C)=O (centres undefined)	16.3%	0.0%	-4.6%	-1.4%	17.6%	-1.5%	-4.7%	-3.4%
CC1CCN(C(=O)CSc2nnc(NC(=O)Nc3ccccc3)s2)CC1	16.9%[46.1 µM]	-20.0%	-1.6%	x	x	-3.1%	x	x
CC(C)CNC(=O)c1cccc(NC(=O)CSc2ccccc2)c1	-16.9%	32.7%[activator]	-11.4%	-9.3%	3.1%	0.0%	-10.0%	-3.0%
CCc1cc2c(SCC(=O)NC3CCS(=O)(=O)C3)ncnc2s1 (centres undefined)	4.4%[46.1 µM]	-1.9%	x	1.5%	u	x	x	0.7%
CCCCN=C1NN=C(c2cccc([N+](=O)[O-])c2)CS1	3.1%[46.1 µM]	-1.8%	x	0.0%	-26.1%[46.1 µM]	x	x	-1.5%
COc1cc(C(=O)NC(C)C2CC3CCC2C3)ccc1OC(F)F (centres undefined)	-16.0%	-27.8%	x	8.2%	-3.1%	x	x	7.4%
O=C(Nc1nnc(-c2ccc(F)cc2)o1)c1ccco1	x	29.7%	x	-2.5%	x	x	-49.6%	-1.6%
CCOc1nc(SCCOc2ccccc2)nc(N(C)C)n1	-13.4%	-19.2%	-19.0%	-10.1%	u	-19.4%	-19.6%[9.22 µM]	4.3%
COCCN1CCN(c2c(C)c(C)nc3cc(-c4cccc(OC)c4)nn23)CC1	u	51.4%[activator]	x	x	21.3%[46.1 µM]	x	-13.1%	-2.4%
COc1cccc(C(=O)Nc2ccccc2-c2nc3ccccc3s2)c1	-17.9%[46.1 µM]	-23.1%	6.7%	x	-19.7%[46.1 µM]	0.1%	x	x
Cc1ccc(/C=C2\C(=O)NC(=O)N(CCc3ccc(F)cc3)C2=O)s1	1.8%	-26.6%	x	-5.1%	10.7%	x	x	2.0%
CCOC(=O)C1=C(C)N=c2s/c(=C\c3cccn3C)c(=O)n2C1c1cccc(OC)c1OC (centres undefined)	-6.3%	-8.9%	u	-0.9%	u	-8.6%	-42.5%	-1.4%
Cc1ccc(C(NC(=O)N2CC(C)OC(C)C2)C(Cl)Cl)cc1F (centres undefined)	23.6%	-19.7%	-2.1%	-11.3%	-3.0%	7.0%	-9.4%	14.7%
Brc1ccc(-c2nnc3sc(CN4CCCCC4)cn23)cc1	-0.1%[46.1 µM]	5.8%	-8.4%	x	0.2%[46.1 µM]	-3.0%	x	x
CC1CC(=O)c2cnc(NCC3CCCO3)nc2C1 (centres undefined)	18.0%	17.4%	-4.0%	-1.7%	u	1.4%	1.4%	-8.4%
O=C(NCC(c1cccs1)N1CCOCC1)c1cn(-c2ccccc2)nc1-c1ccc(F)cc1 (centres undefined)	-24.2%	33.6%[activator]	x	-2.6%	u	x	x	-11.5%
COc1cccc(N2C(=O)C(CC(=O)Nc3ccc(F)cc3)N(C3CCCCC3)C2=O)c1 (centres undefined)	-2.4%	-19.2%	1.6%	-0.9%	-3.0%	-0.2%	-10.3%	7.1%
CCc1noc(C)c1C(=O)OCC(=O)Nc1ccccc1SC	10.5%	0.0%	x	-0.8%	13.6%	x	x	-15.7%
COc1ccccc1NC(=O)C1=C(C)Nc2c(C(=O)Nc3ccc(F)cc3)cnn2C1c1cccc([N+](=O)[O-])c1 (centres undefined)	-19.4%[46.1 µM]	-7.2%	u	x	x	-3.5%	x	x
O=C(Nc1nnc(-c2ccccc2)o1)NC1CCCCC1	-17.6%	61.8%[activator]	-0.2%	4.0%	-26.5%	-2.5%	-14.0%	25.2%
CCCCCn1ccc(=O)c2c(C(F)(F)F)nccc21	u	u	-8.7%	21.1%	u	-3.1%	4.9%	7.1%
Cc1ccc(CCNC(=O)C2CCN(C(=O)c3sccc3-n3cccc3)CC2)cc1	-13.3%	-6.3%	-4.9%	-8.8%	-23.6%	3.8%	-7.3%	14.0%
CSc1ccccc1C(=O)NC1CC2CCC1C2 (centres undefined)	-6.4%	0.5%	14.9%	3.3%	1.6%	-3.4%	-1.2%	-4.1%
CN(C)c1ncnc2c1ncn2C1OC(CO)C(O)C1O (centres undefined)	u	-18.4%	5.1%	-1.0%	u	2.0%	11.1%	-7.5%
COc1ccc2[nH]c(=O)c(CNc3ccccc3C)cc2c1	u	22.0%	x	1.0%	u	x	-1.6%	-5.2%
CC(=O)c1c(C)[nH]c(C(=O)OCC(=O)Nc2ccc(Cl)cc2[N+](=O)[O-])c1C	-15.2%	u	-2.5%	-0.7%	6.31µM*	-6.8%	-2.3%	-20.3%
COc1cccc(C(=O)/C=C/Nc2ccc(S(=O)(=O)Nc3ccc(C(C)=O)cc3)cc2)c1	u	19.9%	-65.8%	u	u	-2.9%	4.8%	1.4%
CCc1c(C)nc2nc(-c3ccccc3)nn2c1NCc1ccc(C)cc1	-25.8%[46.1 µM]	-20.8%	14.3%	x	u	-8.6%	x	x
CC[C@H](C)[C@H](NC(N)=O)C(=O)Nc1ccc2c(c1)OCO2	11.9%[46.1 µM]	-1.8%	x	6.3%	-3.5%[46.1 µM]	x	x	0.6%
CCN1CCN(C(c2ccc(C(F)(F)F)cc2)c2ccc3cccnc3c2O)CC1 (centres undefined)	u	u	x	-10.6%	u	x	-65.4%	20.0%
NC(=O)Cn1cc(C(=O)C(=O)N2CCOCC2)c2ccccc21	x	-5.6%	x	7.1%	x	x	0.1%	10.6%
Cc1cc(/C=C2\C(=O)NN(c3ccccc3)C2=O)c(C)n1-c1ccccc1O	x	6.8%	x	0.1%	x	x	-2.7%	6.3%
Cc1ccccc1OCC(=O)Nc1ccc(S(=O)(=O)N(Cc2ccccc2)c2ccccc2)cc1	1.2%[46.1 µM]	-6.8%	4.8%	x	u	-2.1%	x	x
Cc1ccc(NC(=O)c2cnc(SCC(=O)N3CCOCC3)n(C)c2=O)cc1	19.8%[46.1 µM]	40.0%[activator]	-4.6%	x	x	0.7%	x	x
C/C=C/C(=O)OCC(=O)Nc1cc([N+](=O)[O-])ccc1Cl	12.0%	0.0%	u	6.9%	-3.8%	-4.2%	-0.9%	x
CCN(CC(=O)NCc1ccc(F)cc1)C(=O)/C=C/c1ccc(OC)cc1	-18.1%[46.1 µM]	-3.8%	x	-1.1%	-0.8%[46.1 µM]	x	-16.3%	-18.2%
Cc1ccc(S(=O)(=O)N2CCN(C(=O)N3CCOCC3)CC2)cc1C	u	-8.1%	x	-0.8%	15.0%	x	6.4%	6.3%
O=C1C2CCCN2C(c2cccs2)N1c1ccccn1 (centres undefined)	-18.8%	8.9%	4.7%	2.5%	1.1%	-0.3%	-6.5%	10.2%
O=C(O)CCCCCNS(=O)(=O)c1cccc2c1C(=O)c1ccccc1C2=O	0.6%	-7.4%	5.5%	-1.5%	u	1.6%	7.5%	u
CS(=O)(=O)c1ccc2nc(NC(=O)c3cccc([N+](=O)[O-])c3)sc2c1	x	5.3%	x	2.5%	x	x	-5.0%	-23.3%
C[C@@H]1NC(=O)c2cc([N+](=O)[O-])cc(I)c2OCC[C@@H](C(=O)NC(CC(=O)O)C(N)=O)NC(=O)[C@H](CC(N)=O)NC1=O (some centres undefined)	7.5%	1.3%	u	2.8%	15.2%	-2.8%	-3.9%	2.8%
COc1ccc(S(=O)(=O)Nc2ccc(F)c(F)c2)cc1Cl	-19.0%	x	-16.2%	-16.9%	9.8%	-5.6%	-122.9%	7.7%
C=CCNC(=O)c1c(N)n(Cc2ccco2)c2nc3ccccc3nc12	u	-26.5%	u	4.6%	-30.1%	-14.0%	3.6%	-4.7%
CCOc1cc(C(F)(F)F)cnc1/C(N)=N/O	x	-18.5%	x	1.2%	-0.3%	x	0.5%	11.1%
Cc1ccccc1C(=O)NNC(=S)NC(=O)c1cccnc1	-3.6%	-20.1%	2.4%	14.6%	3.6%	-1.8%	-36.6%	-1.7%
COc1cc2c(cc1OC)C(=Cc1ccc(N(C)C)cc1)C=C2	-1.8%[46.1 µM]	24.5%	x	x	19.5%[46.1 µM]	x	x	-19.2%
Cc1ccc(Cl)cc1NC(=O)Cn1nc(-c2cccs2)ccc1=O	u	21.7%	x	0.3%	u	x	-14.1%	4.5%
COc1cc(/C=C2\C(=N)N3N=C(S(C)(=O)=O)SC3=NC2=O)ccc1OS(=O)(=O)c1ccc(C)cc1	x	-7.1%	x	u	x	x	1.5%	1.8%
COc1ccc(C(=O)c2ccccc2C(=O)c2ccccc2)cc1	-16.4%	-24.0%	x	x	-10.4%	x	x	-7.7%
O=C(O)C1C2C=CC3(O2)C1C(=O)N1c2ccccc2COC13 (centres undefined)	-2.1%	4.9%	-2.0%	4.9%	26.8%	-2.1%	u	-8.4%
COc1ccc(C2(C)NC(=O)N(CC(=O)NCCC3=CCCCC3)C2=O)cc1OC (centres undefined)	0.7%	u	5.8%	-0.8%	4.5%	3.7%	12.9%	16.5%
COc1cc(C(=O)NCc2ccc(F)cc2)cc(Cl)c1OC	3.4%	19.5%	-7.7%	0.6%	10.7%	-5.5%	-29.5%	8.8%
Cc1cccc(CS(=O)(=O)Cc2ccc(C(=O)NC(C)c3ccccc3)o2)c1 (centres undefined)	1.4%[46.1 µM]	15.9%&-14.0%	13.4%	0.2%	x	0.0%	-8.1%	7.1%
O=C(Nc1ccc2c(c1)OCO2)C1CCN(c2ccc(S(=O)(=O)N3CCOCC3)cc2)CC1	-16.1%	7.7%	-7.3%	8.4%	-1.8%	0.1%	9.6%	-11.1%
